Source: PubChem BioAssay (ICCB-Longwood Screening Facility, Harvard Medical School)
HCMV NEC inh: inhibitors of HCMV UL50-UL53 interaction, biochemical, HTRF; HCMV UL50-UL53 nuclear egress complex (human cytomegalovirus); normalized percent inhibition; inhibition, % (test concentration not listed); 0.15% of 190,000 active; AID 1918969, 2023;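 active = both replicates at 50% or more, plus weaker picks with an unusually low signal ratio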;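 also: stock transfer was 100 nL into about 20 µL; 0% = negative control wells and 100% = wells with untagged competitor protein; inactives centre near -12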
Active calls of the source: *; & = joins results of further samples.

SMILES	HCMV NEC inh
CCN1CCN(Cc2ccc(NC(=O)c3ccc(C)c(NC(=O)c4cncc(-c5cccs5)c4)c3)cc2C(F)(F)F)CC1	-1
CC(C)CCNc1cc(C(=O)N[C@H]2CCCCNC2=O)cc(S(=O)(=O)NC(C)C)c1	-12
CS(=O)(=O)c1ccc2nc(NC(=O)c3ccc4c(c3)CCCC4)sc2c1	1
CCOC(=O)C1=C(C)NC(c2ccccc2)=C(C(=O)OCc2ccc([N+](=O)[O-])cc2)C1C#Cc1ccccc1 (stereo not given)	-10
CCCCCCCCCCCCC/C=C/[C@@H](O)[C@H](CO)NC(=O)CCCCCCC	-19&-19&-7
COc1cc(-c2ncn(C=CC(=O)OC(C)C)n2)cc(C(F)(F)F)c1	-3
CC(=O)Nc1cccc(-c2cn3c(C)cccc3n2)c1	-3
OC[C@H]1O[C@@H](n2cnc3c(NC4CCCC4)nc(Cl)nc32)[C@H](O)[C@@H]1O	-3
Cc1c(O)ccc2c(=O)c(Oc3ccccc3)coc12	-20
Oc1ccc(Nc2ccccc2)cc1	-12
CC1=C(C(N)=O)C(c2ccccc2)n2nc(SCc3ccccc3)nc2N1 (stereo not given)	-6
CCSc1nnc(CSc2ncccn2)n1CCc1ccccc1	1
CCC1(CC)CC1C(=O)N1CCC(n2cc(C3CC3)nn2)CC1 (stereo not given)	-6
CC(=O)OCC(=O)C12OC3(CCCC3)OC1CC1C3CCC4=CC(=O)C=CC4(C)C3(F)C(O)CC12C (stereo not given)	-6
C=CC[C@@H]1/C=C(\C)C[C@@H](C)C[C@H](OC)[C@H]2O[C@@](O)(C(=O)C(=O)N3CCCC[C@H]3C(=O)O[C@H](/C(C)=C/[C@@H]3CC[C@@H](O)[C@H](OC)C3)[C@H](C)[C@@H](O)CC1=O)[C@H](C)C[C@@H]2OC	-26&-26
Cc1ccccc1C(CC(=O)O)N1Cc2ccccc2C1=O (stereo not given)	-5
CC1S/C(=C(/C#N)C(N)=O)N(c2ccccc2)C1=O (stereo not given)	-5
CNC1=C(n2nnc3ccccc32)C(=O)c2ccccc2C1=O	33
CC(NC(=O)c1ccc2c(c1)OCO2)C(c1cccs1)N1CCOCC1 (stereo not given)	-12
COc1ccc(C(=O)CSc2nc(C)cc(C)c2C#N)cc1	-53
CC(C)(C)c1cc(C(=O)C(C#N)=NNc2cccc(Cl)c2)no1	-57
CC1CCC2C(C)C(OC(=O)CCC(=O)O)OC3O[C@@]4(C)CCC1[C@]32OO4 (stereo not given in full)	-80
c1ccc2sc(COCc3cn4ccccc4n3)nc2c1	-8
CCC(=O)Nc1c(-c2ccc(F)cc2)nc2ccccn12	-11
COc1cc2c(Nc3ccc(Br)cc3F)ncnc2cc1OCC1CCN(C)CC1	-4&-3&-3&18
CN(Cc1ccccc1)C(=O)COc1ccc(Br)cc1	-4
CCCCC[C@H](O)CC[C@@H]1[C@@H](C/C=C\CCCC(=O)O)[C@@H](O)C[C@H]1O	-16&-16
O=C(O)/C=C\C(=O)Nc1ccccc1C(=O)O	-11

No new results follow: an excerpt of the list.
SMILES	HCMV NEC inh
Cc1ccccc1C(CC(=O)O)N1Cc2ccccc2C1=O (stereo not given)	-5
CC1S/C(=C(/C#N)C(N)=O)N(c2ccccc2)C1=O (stereo not given)	-5
CNC1=C(n2nnc3ccccc32)C(=O)c2ccccc2C1=O	33
CC(NC(=O)c1ccc2c(c1)OCO2)C(c1cccs1)N1CCOCC1 (stereo not given)	-12
COc1ccc(C(=O)CSc2nc(C)cc(C)c2C#N)cc1	-53
CC(C)(C)c1cc(C(=O)C(C#N)=NNc2cccc(Cl)c2)no1	-57
CC1CCC2C(C)C(OC(=O)CCC(=O)O)OC3O[C@@]4(C)CCC1[C@]32OO4 (stereo not given in full)	-80
c1ccc2sc(COCc3cn4ccccc4n3)nc2c1	-8
CCC(=O)Nc1c(-c2ccc(F)cc2)nc2ccccn12	-11
COc1cc2c(Nc3ccc(Br)cc3F)ncnc2cc1OCC1CCN(C)CC1	-4&-3&-3&18
CN(Cc1ccccc1)C(=O)COc1ccc(Br)cc1	-4
CCCCC[C@H](O)CC[C@@H]1[C@@H](C/C=C\CCCC(=O)O)[C@@H](O)C[C@H]1O	-16&-16
O=C(O)/C=C\C(=O)Nc1ccccc1C(=O)O	-11

Not all compounds are listed; count on the stated rates, not on these rows.
